Screening results: PubChem BioAssay, National Center for Advancing Translational Sciences (NCATS)
SARS PLpro yeast: qHTS of Yeast-based Assay for SARS-CoV PLP; S. cerevisiae expressing SARS-CoV PLpro, growth rescue; control for the full effect not named in the record; Potency, µM (series often up to 32.9 µM), without a hit: at the highest dose activity, positive = growth rescue; 0.19% of 330,000 active; AID 485353, 2010; active means well fitted rising curve with a large enough effect; inconclusive means small, poorly fitted or top-dose-only effect; inactive means no such curve, though single readings can be large or run the other way; note: 0% is about no effect; nearly all actives have a fitted effect of over 55% in size; growth read by luminescence after 48 h
RE007 growth inh: qHTS Assay for Inhibitors of the HIV-1 protein Vpr. S. pombe RE007 Vpr strain, BacTiter-Glo ATP luminescence, 24 h; control for the full effect not named in the record. 0.21% of 360,000 active. Potency, µM (top dose mostly 92.2 µM), for inactives: top-dose activity change, negative = less growth. AID 651644, 2012; active = well fitted falling curve with a large enough effect; inconclusive = small, poorly fitted or top-dose-only effect; inactive = no such curve, though single readings can be large or run the other way;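 note: % is set by controls: 0 for no effect and ±100 for the full control effect; nearly all actives have a fitted effect of over 50% in size; the assay follows cell death caused by Vpr and the record does not say whether a fall means rescue or toxicity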
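Fission yeast RE007 carrying one integrated HIV-1 vpr copy, seeded at OD 0.01 in PMG+AL medium with 23 nL pinned compound. Grown 24 h at 30 degrees; viability read by BacTiter-Glo luminescence after 5 min.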
Lassa entry inh: qHTS for Inhibitors of binding or entry into cells for Lassa Virus. Lassa virus pseudotype entry inhibition, cell reporter; control for the full effect not named in the record. Potency, µM (titrated, usually from 37.9 µM), without a hit: at the top dose activity change, negative = inhibition, usual class: inhibitors. 1.2% of 300,000 active. AID 540256, 2011; active means well fitted inhibition curve with a large enough effect; inconclusive means small, poorly fitted or top-dose-only effect, or effect the other way; inactive means flat fitted curve, though single readings scatter; tested in HEK293 cells; note: % is set by controls: 0 for no effect and ±100 for the full control effect; nearly all actives have a fitted effect of over 50% in size; luciferase read-out
2A StopGo: High Throughput Screening for Foot and Mouth Disease Virus Antivirals. Potency, µM (titrated, usually from 57.9 µM), without a hit: at the top dose signal change, negative = less light. human cells with a luciferase reporter of 2A StopGo recoding; control for the full effect not named in the record. 1.2% of 410,000 active; active = well fitted falling curve with a large enough effect; inconclusive = small, poorly fitted or top-dose-only effect; inactive = no such curve, though single readings can be large or run the other way; tested in HEK293T cells; note: % is set by controls: 0 for no effect and ±100 for the full control effect; nearly all actives have a fitted effect of over 45% in size; luciferase light after 4 h
Cruzain inh Det: qHTS Assay for Promiscuous and Specific Inhibitors of Cruzain (with detergent); Cruzipain (Trypanosoma cruzi), P25779; purified cruzain, Z-FR-AMC fluorescence, 0.01% Triton; 0.43% of 200,000 active; AID 1478, 2009; Potency, µM, without a hit: max response, negative = inhibition, usual class: inhibitors;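 note: plate controls were neutral wells for no effect and buffer without enzyme for full effect; nearly all actives have a fitted effect of over 40% in size; top concentration of the series not given in the record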
Target sequence (P25779 123-467 limits assumed): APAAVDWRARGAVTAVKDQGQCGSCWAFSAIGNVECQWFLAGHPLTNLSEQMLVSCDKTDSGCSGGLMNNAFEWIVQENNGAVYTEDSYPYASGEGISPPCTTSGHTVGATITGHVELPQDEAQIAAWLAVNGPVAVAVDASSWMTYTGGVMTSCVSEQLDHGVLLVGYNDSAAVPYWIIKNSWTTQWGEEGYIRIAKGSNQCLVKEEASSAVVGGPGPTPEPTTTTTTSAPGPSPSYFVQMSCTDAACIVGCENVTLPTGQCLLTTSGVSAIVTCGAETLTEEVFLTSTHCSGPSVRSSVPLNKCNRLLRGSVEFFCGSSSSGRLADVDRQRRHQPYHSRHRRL
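Detergent-containing arm of a paired screen for aggregation-based inhibition: 0.01% Triton X-100 present. Cruzain at 1.5 nM cleaved 2 uM Z-FR-AMC at pH 5.5 with 5 mM DTT; AMC fluorescence gain over 60 s measured activity.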
NS1 function inh: qHTS Assay for Inhibitors of Influenza NS1 Protein Function; S. cerevisiae slowed by influenza A NS1, growth recovery by OD600; Potency, µM (titrated, usually from 46.1 µM), for the others: top-dose activity, positive = more growth; 0.4% of 270,000 active; AID 2326, 2010; active means well fitted rising curve with a large enough effect; inconclusive means small, poorly fitted or top-dose-only effect; inactive means no such curve, though single readings can be large or run the other way; note: nearly all actives have a fitted effect of over 50% in size
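Read-out: OD600 growth recovery of NS1-expressing budding yeast. Cells grown overnight at 30C in -URA glucose medium, washed, resuspended and diluted 1:100 in 2% galactose assay medium, pH 6.0. Same strain lacking NS1 served as positive control.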
Cruzain noTriton: qHTS Assay for Promiscuous and Specific Inhibitors of Cruzain (without detergent); Cruzipain (Trypanosoma cruzi), P25779; purified cruzain, Z-FR-AMC fluorescence, no detergent; Potency, µM, for inactives: max response, negative = inhibition, actives largely listed as inhibitors; 2.3% of 200,000 active;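 note: plate controls were enzyme without inhibitor for no effect and buffer without enzyme for full effect; nearly all actives have a fitted effect of over 40% in size; top concentration of the series not given in the record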
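Purified cruzain at 1.5 nM, pre-incubated 15 min with compound at room temperature in 100 mM sodium acetate pH 5.5, 5 mM DTT, 0.00005% Triton X-100. Reaction started with 2 uM Z-FR-AMC; AMC fluorescence increase over 60 s gives rate.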
Marburg entry inh: qHTS for inhibitors of binding or entry into cells for Marburg Virus; 1.8% of 300,000 active; Marburg virus pseudotyped entry inhibition, cell reporter; control for the full effect not named in the record; about a third of the inactives were read at about 46 µM; Potency, µM (series often up to 37.8 µM), inactives show top-dose activity change, negative = inhibition, usual class: inhibitors; AID 540276, 2011; active = well fitted inhibition curve with a large enough effect; inconclusive = small, poorly fitted or top-dose-only effect, or effect the other way; inactive = flat fitted curve, though single readings scatter; tested in HEK293 cells; about a fifth of its hits are not listed in these tables; note: % is set by controls: 0 for no effect and ±100 for the full control effect; luciferase read-out
* marks the source's active call; other numbers are inactive results; ? = inconclusive; / = not tested or not shown; [ ] = dose if it differs, or a comment. Unless noted, calls come from the whole dose curve; as a rule, active = well fitted curve in the direction sought with a large enough effect; inconclusive = small, poorly fitted or top-dose-only effect, or another doubt; inactive = no such curve, though single readings can be large; an effect the other way counts as inactive or inconclusive. Potency is the fitted concentration of half-maximal effect.

Molecule	SARS PLpro yeast	RE007 growth inh	Lassa entry inh	2A StopGo	Cruzain inh Det	NS1 function inh	Cruzain noTriton	Marburg entry inh
Cc1cccc(NC(=O)CSc2ccc(C(N)=O)cc2[N+](=O)[O-])c1C	3%	1%	9%	-24%	0.4%	14%	-29%	8%
Cc1ccc2nc(NC(=O)CN(C)S(=O)(=O)c3cccc4nsnc34)sc2c1	5%	-22%	-34%	-11%	5.8%	-4%	3%	?
CCC(=O)c1cc2c(C)cc(=O)oc2c(C)c1O	-6%	-3%	26%	20%	1.0%	-9%	3%	17%
Cc1ccsc1C(=O)N(C)CC(=O)Nc1ccccc1Br	-1%	1%	12%	-17%	/	/	/	10%
O=C(COC(=O)Cc1cccc(C(F)(F)F)c1)Nc1ccc2c(c1)OCCO2	2%	5%	4%	-3%	-7.8%	-2%	-7%	5%
COc1ccc(C2N(Cc3ccccc3)CCN2Cc2ccccc2)cc1[N+](=O)[O-]	0%	-14%	-6%	-17%	/	-4%	/	-11%[46.1 µM]
COc1ccccc1OCC(=O)NCC1CCCCC1	-9%	5%	20%	33%[activator]	-5.7%	-5%	1%	7%
C[C@H](NC(=O)C1CC(=O)N(c2ccc3c(c2)OCCO3)C1)C(=O)N1CCCCC1 (some centres not stated)	-1%	2%	-5%[46.1 µM]	-12%	/	-4%	/	?
Cc1ccc(NC(=O)Cc2sc(C)nc2-c2ccc(C)cc2)cc1	-10%	-2%	1%	33%[activator]	-8.7%	-11%	11%	?
CCN(CC)S(=O)(=O)c1cc(C(=O)Nc2ccc(Cl)cn2)ccc1C	-6%	-20%	?	-59%	-5.2%	-23%	-9%	?
CCc1ccccc1S(=O)(=O)Cc1ccc(C(=O)NCCc2ccc(Cl)cc2)o1	/	/	?	?	-5.0%	/	4%	-28%[46.1 µM]
COc1ccccc1C(=O)NCC1(N2CCN(C)CC2)CCCCC1	/	/	2%[46.1 µM]	-16%	0.2%	/	-1%	?
CN(C)S(=O)(=O)N1CCN(C(=O)c2ccccc2)CC1	-8%	11%	1%	/	5.3%	-4%	-7%	4%
CCCCCN(C(=O)CCC(=O)OCc1ccc(C(C)(C)C)cc1)c1c(N)n(CCCC)c(=O)[nH]c1=O	9%	-10%	?	-20%	/	24%	/	?
O=C(CN1CCC(NC(=O)c2cccc(F)c2)CC1)NCc1cccs1	0%	6%	-10%[46.1 µM]	-10%	/	2%	/	18%[46.1 µM]
CCOC(=O)c1c(NC(=O)C(C)OC(=O)c2ccc(NC(=O)CC#N)cc2)sc2c1CCCC2 (configuration not stated)	-7%	12%	?	-26%	/	/	/	-11%
CN(C)c1ccc(P(=O)(OCc2ccccc2)C(O)c2ccccc2F)cc1 (configuration not stated)	0%	12%	-18%[46.1 µM]	12%	/	2%	/	-5%[46.1 µM]
Cn1c(SCc2ccc(F)cc2)nc2c([nH]c3ccccc32)c1=O	/	/	?	-9%	-0.6%	/	4%	/
CC(Oc1ccc(F)cc1)C(=O)N1CCN(c2ncccn2)CC1 (configuration not stated)	26%	-6%	/	0%	/	0%	/	/
O=C(CN1C(=O)c2ccccc2C1=O)NC(Cc1ccccc1)C(=O)O (configuration not stated)	/	11%	8%	-19%	/	/	/	20%
CCOC(=O)c1c(C)n(-c2ccccc2)c2ccc(OC(=O)COc3ccccc3)cc12	/	/	3%[46.1 µM]	-10%	-0.4%	/	0%	/
C/C(=N\OCC(=O)OCC(=O)N(Cc1ccccc1)C(C)(C)C)c1ccc2c(c1)OCO2	3%	1%	2%	0%	/	/	/	-4%
CCOC(=O)c1ccccc1NC(=O)COC(=O)CC1CCCCC1	-3%	-4%	-25%	2%	/	-18%	/	21%
COc1ccc(CNc2nc(-c3cccnc3)nn2S(C)(=O)=O)cc1	-1%	11%	-19%[46.1 µM]	-14%	/	/	/	-25%[46.1 µM]
CC(C)c1cc(C(=O)Nc2cc(Br)ccc2O)no1	-3%	6%	-4%	/	1.2%	-54%	?	15%
COc1ccc(-c2nc(CC(=O)O)cs2)cc1OC	-6%	/	/	/	-9.7%	-5%	1%	2%
Cc1cc(C)c2nc(NC(=O)c3ccc(S(=O)(=O)N4CCC(C)CC4)cc3)sc2c1	/	/	21%[46.1 µM]	-9%	2.9%	/	-69%	/
COC(=O)c1c(N)c2ccccc2[nH]c1=O	5%	5%	11%	1%	-0.9%	0%	7%	-3%
O=C1CC(NC2CCN(C(=O)c3cccc(F)c3)CC2)C(=O)N1 (configuration not stated)	0%	-14%	8%	7%	/	-1%	/	-3%[46.1 µM]
COc1ccc(C(OCC(O)CN2CCC(O)CC2)c2ccc(OC)cc2)cc1 (configuration not stated)	3%	-6%	6%	-9%	/	6%	/	5%[46.1 µM]
C/C(=N\NC(=O)c1ccc(Br)o1)c1cc2c(cc1NC(=O)CCC(=O)O)OCO2	-4%	-11%	?	9%	/	11%	/	-3%
COc1ccc(C(=O)NC(C)C2CC3CCC2C3)c(OC)c1 (configuration not stated)	-13%	1%	-2%[46.1 µM]	4%	/	-24%	/	?
Cc1c(NC(=O)COC(=O)c2c3c(nc4ccccc24)CCCC3)c(=O)n(-c2ccccc2)n1C	26%	33%	0%	-22%	-3.9%	17%	-7%	?
CC(C)N(Cc1ccccc1)C(=O)CCS(=O)(=O)c1cc2c(cc1Cl)NC(=O)CO2	/	/	14%[46.1 µM]	-30%	2.7%	/	16%	/
O=C(C1CC1)N1CCc2cc(Br)c(S(=O)(=O)N3CCCCCC3)cc21	/	-16%	?	8%	/	/	/	?
CC(=O)N1CCC(=O)Nc2ccc([N+](=O)[O-])cc21	11%	3%	21%[46.1 µM]	0%	/	/	/	13%[46.1 µM]
Cc1ccc(C(C)C)c(OC(=O)/C=C/c2ccccc2)c1	-28%	-6%	9%	-16%	-4.9%	-19%	0%	?
Cc1cc(C)n(-c2ccc(OCC(=O)O)nn2)n1	17%	-1%	-25%	-15%	0.1%	-12%	0%	11%
O=c1[nH]c2ccc(Cl)cc2c(-c2ccccc2)c1CN1CCOCC1	9%	15%	-14%	/	-5.2%	-4%	2%	?
Fc1ccc(CN2CCCCCCC2)c(F)c1	10%	0%	1%	-15%	1.6%	1%	-4%	11%
CN(C)c1cc(Nc2ccc(O)cc2)c([N+](=O)[O-])c2nonc12	6%	8%	/	4%	/	-10%	/	/
COC(=O)c1sccc1NC(=O)c1cc(C)on1	?	-2%	-9%	0%	0.2%	-50%	-9%	5%
O=C1CC(NS(=O)(=O)c2ccc(F)cc2)CN1c1ccc2c(c1)OCCO2 (configuration not stated)	-1%	-1%	15%	1%	/	/	/	10%
COc1ccc(OCCOC(=O)c2cccs2)cc1	-3%	?	17%	47%[activator]	-1.5%	-14%	-4%	-19%
C=CCS/C(N)=N\N=C\c1c(O)ccc2ccccc12	-3%	-18%	/	44%[activator]	/	-3%	/	/
O=C(N/N=C/c1ccccn1)NC12CC3CC(CC(C3)C1)C2	-2%	-5%	21%[46.1 µM]	-7%	/	-33%	/	?
COc1ccc(N(CC(=O)Nc2ccc3c(c2)OCO3)S(C)(=O)=O)c(OC)c1	19%	0%	-2%	50%[activator]	-11%	9%	4%	2%
CCS(=O)(=O)c1ccc(O)c(NC(=O)Nc2ccccc2)c1	0%	6%	3%	21%	2.7%	0%	-4%	22%
OCC1(CCOc2ccccc2)CCN(Cc2ccc3cccc(F)c3n2)CC1	-1%	-26%	?	-17%	/	-10%	/	1%[46.1 µM]
COc1ccc(C)cc1NC(=O)CSc1nc2ccccc2nc1N1CCCC1	6%	-8%	/	-8%	/	24%	/	/
CC(C)CC(=O)NC1(C(F)(F)F)C(=O)Nc2c1c(=O)[nH]c(=O)n2-c1ccccc1 (configuration not stated)	/	/	-1%[46.1 µM]	-10%	-0.5%	/	-3%	18%[46.1 µM]
Cc1ccc(C)c(CN2C(=O)c3ccccc3S(=O)c3ccc(C(=O)NCCc4ccc(Cl)cc4)cc32)c1 (configuration not stated)	/	/	?	-10%	0.2%	/	6.3µM*	?
CN1C(=O)CC(N2CCN(C(=O)c3ccccc3)CC2)C1=O (configuration not stated)	-2%	8%	?	-11%	2.7%	5%	-10%	?
CN1CCN(C2CC(=O)N(c3ccc4c(c3)OCCO4)C2=O)CC1 (configuration not stated)	0%	18%	4%	-2%	0.8%	-5%	-4%	0%[46.1 µM]
O=c1c2ccccc2nc(-c2ccccc2)n1Cc1ccc(Cl)cc1	-15%	8%	-9%	-9%	-11%	-45%	-2%	-19%
Cc1ccc(-c2cc(C(=O)Nc3c(C(=O)c4ccc(C)c(F)c4)oc4ccccc34)no2)cc1	/	/	-7%[46.1 µM]	-17%	-1.0%	/	-6%	7%[46.1 µM]
COc1ccc(-c2csc(C(C#N)=C(O)CSc3nccn3C)n2)cc1OC	/	13%	20%[46.1 µM]	-9%	/	/	/	14%[46.1 µM]
CC(CN1CCN(C)CC1)OC(=O)c1cccc(Cl)c1 (configuration not stated)	0%	96%	12%	33%[activator]	/	?	/	9%[46.1 µM]
CCC(C)(NC(=O)c1ccccn1)C(=O)NC1CCCCC1 (configuration not stated)	1%	3%	12%	-25%	2.9%	-17%	3%	-6%
